Compound activity deposited in PubChem by several laboratories.
Ecoli growth: blocks Escherichia coli growth. AID 1053175. OD600, 23 h; hits give low values. 330,000 tested, 0.21% active. OD600 absorbance (test concentration not listed);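 active = OD600 absorbance below the run mean of sample wells minus 3.6 SD, in any replicate, cut at about 0.56 in these data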;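 also: stock transfer was 300 nL into about 60 µL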
UCH37 DUB inh: blocks the human deubiquitinase UCH37; Q9Y5K5; purified proteasome/UCH37, Ub-AMC cleavage fluorescence; inhibition, % (no concentration beside the values); 330,000 tested, 0.33% active; AID 588478;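 active = mean of two replicates above 20%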;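 also: 0% = compound-free wells with enzyme and 100% = wells lacking proteasome; stock transfer was 100 nL into about 20 µL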
Target sequence (Q9Y5K5 whole entry, looked up): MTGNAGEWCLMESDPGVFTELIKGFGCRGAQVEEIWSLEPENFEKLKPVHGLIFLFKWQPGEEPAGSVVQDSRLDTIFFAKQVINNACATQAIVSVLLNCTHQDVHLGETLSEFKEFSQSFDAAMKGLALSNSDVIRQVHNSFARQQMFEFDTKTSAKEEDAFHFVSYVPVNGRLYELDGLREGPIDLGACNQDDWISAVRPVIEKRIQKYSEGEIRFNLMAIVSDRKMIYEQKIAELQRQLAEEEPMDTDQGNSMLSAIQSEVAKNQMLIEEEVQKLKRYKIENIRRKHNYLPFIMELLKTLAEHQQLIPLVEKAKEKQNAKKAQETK
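Material: human UCH37 enzyme supplied as purified proteasome complex. Measure: % inhibition of Ub-AMC cleavage fluorescence. Medium: pH 7.4 Tris-HCl (50 mM) with ovalbumin, ATP-MgCl2, DTT. Times: 30 min preincubation with enzyme, 25 min cleavage at room temperature. Detection: AMC fluorescence intensity at 355/460 nm.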
Vif A3G: HIV-1 Vif–A3G interaction blockers – biochemical, TR-FRET, GST-Vif 1-94, biotin-A3G peptide, dose response retest, primary screen (AID 1117319); inhibition, %; hits with a dose series show IC50 in µM; TR-FRET GST-Vif / biotin-A3G peptide binding; higher % means a stronger effect; test concentration not given here; strong numbers were not always called active; 260,000 tested, 0.57% active;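 active = above the screen mean plus three standard deviations and confirmed in dose response; inconclusive = results disagree or hit not tested in dose response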;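 also: Vif residues 1-94 fused to GST binding biotinylated APOBEC3G peptide 110-148; 0% = full assay without inhibitor and 100% = GST in place of GST-Vif; retest series ran down from 100 µM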
Bfl-1 A1 inh: inhibitors of the anti-apoptotic protein A1, read as caspase activation | MEF A1-2A-BIM cells, Caspase-Glo 3/7 luminescence, 3 h; percent of clofoctol response, vehicle zero | caspase activation, % (test concentration not listed) | 330,000 tested, 0.066% active | AID 2462;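 active = over half of replicate activation scores above 10%, or exactly half above 10 with the replicate mean above 10; inconclusive = replicate mean below 10 yet half the replicates above 10; inactive = over half of replicates below 10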;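 also: wells of about 30 µL received 50 nL stock; many hits fall short of the cut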
LANA-H2A inh: blocks KSHV LANA binding to histone H2A/H2B; 320,000 tested, 0.6% active; Q9QR71; inhibition, % (no concentration beside the values); cell-free LANA-H2A/H2B peptide, fluorescence polarization; in the data active = inhibition mostly above about 10%, no sharp cut-off; inactive = mostly below about 6.7%;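 also: stock transfer was 7.5 nL into about 10 µL; 0% = median of vehicle wells and 100% = median of positive control wells; one replicate is shown; the record names a cut of 25% in any replicate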
HNF4A DNA FP: change in binding of human HNF4 alpha to DNA. HNF4a-FITC DNA binding, fluorescence polarization, 1 h. 360,000 tested, 0.3% active. AID 1224865. activity change, % at 10 µM; in the data active = activity change above about 30%, passing the limit was not always enough;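 also: controls were the assay level and a saturating level of protein; the project sought stronger binding though the title names inhibitors; some compounds called inactive have numbers as strong as hits; positive values seem to mean higher polarization but the record does not say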
Beta2AR agonist: activates human beta-2 adrenergic receptor causing internalization. Am2.2-beta2AR cells, FAP receptor internalization, flow cytometry; reference of the scale not given here. response, % (no concentration beside the values). AID 504454. P07550. 340,000 tested, 0.43% active;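 active = response above a set limit, near 3 SD of response in nonfluorescent compounds, cut at about 42% in these data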;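 also: stock transfer was 100 nL into about 11 µL; a reference agonist was the positive control; negative values mostly stem from fluorescent compounds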
Target sequence (P07550 whole entry, looked up): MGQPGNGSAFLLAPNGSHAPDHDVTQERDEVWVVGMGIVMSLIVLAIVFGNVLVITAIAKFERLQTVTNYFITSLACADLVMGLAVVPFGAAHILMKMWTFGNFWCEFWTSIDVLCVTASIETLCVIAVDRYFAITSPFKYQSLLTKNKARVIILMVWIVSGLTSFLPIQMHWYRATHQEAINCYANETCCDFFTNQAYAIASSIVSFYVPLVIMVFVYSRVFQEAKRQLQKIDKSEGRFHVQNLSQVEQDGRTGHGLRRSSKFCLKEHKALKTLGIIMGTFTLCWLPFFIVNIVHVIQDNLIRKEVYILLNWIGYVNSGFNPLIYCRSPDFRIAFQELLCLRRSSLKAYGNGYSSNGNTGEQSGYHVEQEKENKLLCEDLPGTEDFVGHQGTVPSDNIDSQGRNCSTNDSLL
Numbers without * were called inactive; ? = inconclusive; . = no result given; & = joins results of further samples.

SMILES	Ecoli growth	UCH37 DUB inh	Vif A3G	Bfl-1 A1 inh	LANA-H2A inh	HNF4A DNA FP	Beta2AR agonist
O=C(CC1=NCCNC(c2ccccc2)C1)c1ccccc1O (stereo unspecified)	.	.	-1.1%	-0.6	-2.9	2.0	1.0
Cc1ccnc2nc(C(=O)OCC(=O)Nc3ccccc3C(C)(C)C)nn12	0.665	1.7	1.7%	-0.2	0.1	-2.4	-1.6
Cc1nc2ccccn2c1/C(O)=C1\C(=O)C(=O)N(CCN(C)C)C1c1ccco1 (stereo unspecified)	0.712	6.1	.	1.2	1.5	1.7	-3.7
COc1ccccc1-c1nnc(SCC(=O)Nc2ccc(S(N)(=O)=O)cc2)n1C	0.742	2.0	1.7%	0.4	-8.2	-2.9	4.4
Cc1cccc(NS(=O)(=O)c2cccc(C(=O)N3CCN(c4ccccn4)CC3)c2)c1	0.717	4.5	.	0.0	-5.1	2.1	-5.2
S=C(c1ccccc1)N1CCN(C(=S)c2ccccc2)CC1	0.733	0.1	2.2%	1.5	0.1	0.3	-1.4
Cc1ccc(N(C(=O)C2CCCO2)C2C=CS(=O)(=O)C2)cc1Cl (stereo unspecified)	0.67	0.2	21.2%	0.5	3.6	-1.1	-5.2
COc1cc(NC(=O)c2ccc(-c3ccc(Br)cc3)o2)ccc1NC(=O)C(C)C	0.818	-78.0	6.0%&-1.9%	1.0	1.3	1.4	17.1
CN(Cc1ccccc1)C(=O)COC(=O)c1ccccc1NS(=O)(=O)c1cccc(N)c1	0.716	8.6	?	?	.	2.5	1.6
C=CC[C@H](CC(=O)N(CCO)Cc1ccccc1)C(=O)N[C@@H](COC(=O)[C@H](CC=C)CC(=O)OC(C)(C)C)Cc1c[nH]c2ccccc12	.	-0.4	.	-1.2	6.0	4.0	4.6

An excerpt from above in order of formula weight, lowest first:
SMILES	Ecoli growth	UCH37 DUB inh	Vif A3G	Bfl-1 A1 inh	LANA-H2A inh	HNF4A DNA FP	Beta2AR agonist
Cc1ccnc2nc(C(=O)OCC(=O)Nc3ccccc3C(C)(C)C)nn12	0.665	1.7	1.7%	-0.2	0.1	-2.4	-1.6
Cc1cccc(NS(=O)(=O)c2cccc(C(=O)N3CCN(c4ccccn4)CC3)c2)c1	0.717	4.5	.	0.0	-5.1	2.1	-5.2
CN(Cc1ccccc1)C(=O)COC(=O)c1ccccc1NS(=O)(=O)c1cccc(N)c1	0.716	8.6	?	?	.	2.5	1.6

Other results follow.
SMILES	Ecoli growth	UCH37 DUB inh	Vif A3G	Bfl-1 A1 inh	LANA-H2A inh	HNF4A DNA FP	Beta2AR agonist
COc1ccc(-c2nnc(SCC(=O)NCc3cccs3)n2C(C)C)cc1	0.795	1.9	2.6%&-6.2%	0.0	-4.6	3.2	8.2
O=C(NN1C(=O)C2C3C=CC(C3)C2C1=O)C(O)c1ccccc1 (stereo unspecified)	0.68	0.1	-3.4%	0.0	-2.2	3.1	4.6
CCc1noc(C)c1C(=O)Nc1nc(-c2ccccc2)c(C(C)=O)s1	0.657	7.8	-10.2%	-0.7	-0.6	4.4	-0.7
Cc1ccsc1C(=O)N1CCCC(CCC(=O)N2CCN(c3ccccn3)CC2)C1 (stereo unspecified)	0.702	-4.7	-4.8%	?	-2.7	-3.8	-9.3
CCCCCN(C(=O)NC(=O)Nc1ccc(C)cc1)S(=O)(=O)c1ccccc1	0.66	1.4	.	0.8	-5.0	1.5	-2.2
Cc1ccc(C)c(S(=O)(=O)NCc2ccc(C(=O)NCc3ccccn3)cc2)c1	0.781	-4.6	-0.3%	0.2	-4.4	1.1	-2.4
Cc1nccn1CCOc1ccc(Cl)cc1	0.661	3.2	.	2.2	3.0	1.8	1.4
COc1ccc(N2CCN(C3CCCN(C(=O)c4ccoc4)C3)CC2)cc1 (stereo unspecified)	0.678	6.3	3.5%	-0.7	0.0	-2.7	9.1
O=c1c2ccccc2sc2nc(C3CCCCC3)n(Cc3ccco3)c(=O)c12	0.7	4.7	23.4%&4.0%	.	.	-1.1	-6.9
Cc1ccsc1/C=N/Nc1ccc(Cl)nn1	.	.	9.0%	-1.0	-2.6	5.7	-6.2
COc1ccccc1NC(=O)c1ccc(NC(=O)CN2CCCC2)cc1	0.664	1.9	13.0%	-0.1	-0.4	-2.5	-7.9
CCNC(=O)CSc1nnc(-c2cccc(S(=O)(=O)N(CC)CC)c2)n1CCc1ccccc1	0.711	0.7	-1.4%&-6.5%	-0.2	4.9	-0.4	-2.2
O=C(/C=C/c1c(Cl)nc2ccccn12)N1CCN(c2ccccc2F)CC1	.	6.3	-7.7%	0.8	6.3	-1.5	-26.9
CCC(C)NC(=O)CCCc1ccccc1 (stereo unspecified)	0.799	2.4	0.7%	0.4	-1.7	3.2	-1.2
COc1cccc(C(c2sc3ncnn3c2O)N2CC(C)OC(C)C2)c1 (stereo unspecified)	0.777	3.3	-0.5%	-0.1	-0.5	0.5	5.6
O=C(Nc1nccs1)c1ccc(COc2ccccc2)o1	0.605	-4.7	-7.3%	0.7	1.5	-4.2	11.2
CCc1cc2c(SCC(=O)N(CC)c3c(N)n(Cc4ccccc4)c(=O)[nH]c3=O)ncnc2s1	0.703	2.0	.	0.3	-4.3	3.8	-23.4
CN(C)c1cccc(C(=O)OCC(=O)NCC2CCCO2)c1 (stereo unspecified)	0.763	-1.4	-2.5%	0.3	1.3	0.1	2.6
Cc1cc2nc(-c3ccc(=O)[nH]c3)n(C)c2cc1C	0.68	-0.6	2.5%	-0.3	2.1	-2.0	3.4
COP(=O)(OC)c1nc(-c2ccccc2)oc1NCc1ccccc1	0.64	-131.1	.	0.0	-0.9	0.3	-8.0
CN1CCC(=NNC(=O)C(=O)NC2CCCC2)CC1	0.791	-0.4	2.2%	0.1	0.9	3.5	-0.4
COC(=O)[C@@]1(Cc2ccc(OC)cc2)[C@H]2c3cc(C(=O)N4CCCC4)n(CCO)c3C[C@H]2CN1C(=O)c1ccccc1	.	-24.2	-3.5%	1.5	-2.5	.	.
COc1ccc(CCNC(=O)Cn2cc(C(F)(F)F)cc(Cl)c2=O)cc1OC	0.694	3.2	.	0.1	0.1	0.8	-7.7
COc1ccc(OC)c(S(=O)(=O)N2CCN(c3ncccn3)CC2)c1	0.633	1.8	-3.5%	0.7	-2.4	1.9	4.7
CCOC(=O)N1CCN(C(=O)c2ccc3nc(C)sc3c2)CC1	0.728	2.9	0.4%	0.4	0.2	-0.8	-0.8
COc1cc(/C=N/NC(=S)NC2CC3C=CC2C3)cc(OC)c1OC (stereo unspecified)	.	.	-2.3%	-0.4	2.1	1.2	-0.2
CC(=O)Nc1cnc2ccccc2n1	0.725	7.0	?	-0.4	0.9	-1.4	-5.9
Cc1ccc(CC(=O)O/N=C(\N)Cc2ccc([N+](=O)[O-])cc2)cc1	0.7	5.9	.	-0.5	-2.4	-4.3	3.7
Cc1cc(C)cc(C(=O)OCC(=O)NCCNC(=O)COC(=O)c2cc(C)cc(C)c2)c1	0.708	3.9	.	0.5	5.0	-4.0	-7.2
CC(Sc1cccc[n+]1[O-])C(=O)Nc1ccc([N+](=O)[O-])cc1Cl (stereo unspecified)	0.737	3.0	.	-0.7	4.2	3.2	-3.8
O=C(Cn1ccc2ccccc2c1=O)N1CCN(Cc2ccc3c(c2)OCO3)CC1	0.684	3.7	-4.4%	0.6	-0.9	0.7	-6.3
C=CCNc1oc(-c2cccc(Cl)c2)nc1C#N	0.664	-1.9	.	-0.1	0.6	3.9	28.1
COc1ccc(S(=O)(=O)NCCc2ccccn2)cc1	0.683	-1.2	6.7%	-0.7	-1.1	-0.8	-0.9
COc1ccc(CCNc2ccc(S(=O)(=O)N3CCN(C)CC3)cc2[N+](=O)[O-])cc1	0.61	2.6	-3.1%	0.3	0.1	7.3	3.5
COc1cc(CCC(=O)OCC(=O)Nc2c(Cl)cccc2Cl)cc(OC)c1OC	0.621	0.0	-4.3%	0.5	10.4	-2.6	2.5
CCc1cccc(CC)c1NC(=O)CSc1nnc(C2CC2)n1N	0.705	1.3	3.5%	.	.	0.9	-4.8
Cc1nc2c(-c3ccccc3)cnn2c(N)c1-c1ccccc1	0.664	-129.7	.	-5.9	3.2	3.9	12.8
COCCn1cc(C(=O)NCc2ccco2)c2c3ccccc3n(C)c2c1=O	0.716	-48.3	-3.6%	0.8	1.8	-4.0	-1.7
Cc1ccc2oc(/N=C(\N)NC(=O)C3CC3)nc2c1	.	.	-1.2%	-1.2	0.2	-0.6	-3.1
COc1ccc(/C=N/NC(=O)c2cccnc2)cc1COc1ccc([N+](=O)[O-])cc1	.	.	1.2%	0.0	-3.9	-2.2	7.8
CCC(C)(C)C1CCc2[nH]nc(C(=O)NCCNC(=O)OC(C)(C)C)c2C1 (stereo unspecified)	0.667	1.5	.	1.9	0.3	-1.1	-6.8
Cc1occc1C(=O)Nc1nnc(-c2ccncc2)s1	0.686	-22.9	-3.5%	-0.5	3.2	-2.4	1.6
Nc1ccc(Oc2ncccn2)cc1	0.611	10.1	24.4µM*	-6.4	-0.4	-2.2	-0.5
O=C(O)c1ccccc1C(=O)N1N=C(c2ccccc2)CC1c1ccccc1O (stereo unspecified)	0.651	2.1	.	0.0	2.6	-3.3	-3.9
CCOC(=O)C1CCN(CCCSc2ccc(Cl)cc2)CC1	0.591	1.9	-0.5%	0.4	-0.5	-2.1	-2.6
Cc1cc(C)c(COc2ccc(/C=N/n3c(C)n[nH]c3=S)cc2)c(C)c1	.	.	-1.0%	-0.7	-1.2	-2.9	0.7
N#CC1=C(N)SC(N)=C(C#N)C1C1C=CCCC1 (stereo unspecified)	0.706	1.5	14.5%	1.2	-1.8	10.9	1.9
CC(=O)NN1C(=O)/C(=C\c2ccc(Cl)cc2)SC1=S	0.622	5.9	7.4%	1.1	-9.2	4.5	2.0
Cc1cccn2c(=O)c(C=O)c(N3CCN(c4ccc(F)cc4)CC3)nc12	0.673	6.4	-3.8%	0.9	-5.0	2.8	28.0
COc1ccc(S(=O)(=O)N2CCCC(C(=O)NCc3ccc4c(c3)OCO4)C2)cc1 (stereo unspecified)	0.632	1.7	0.0%	0.2	-1.1	-2.9	-8.0

Next structures follow:
SMILES	Ecoli growth	UCH37 DUB inh	Vif A3G	Bfl-1 A1 inh	LANA-H2A inh	HNF4A DNA FP	Beta2AR agonist
Cn1cc(C(=O)C(=O)N2CCCC2)c2ccccc21	0.596	3.1	.	-0.1	4.1	4.7	0.3
O=C(NCc1ccc(Cl)cc1)c1ccc(S(=O)(=O)N2CCCCC2)cc1	0.691	0.3	-6.6%	-0.1	-3.0	4.1	9.7
Cc1ccc(-c2nnn(CC(=O)N(CC(=O)NC3CCCCC3)c3cccc(F)c3)n2)o1	0.707	2.7	.	.	.	-2.5	-8.5
CC[N+](C)(C)CCN(Cc1ccc(Cl)cc1)c1ccccn1	0.691	-59.9	-1.8%	0.9	-0.9	4.2	3.3
Cc1ccc(-n2c(SCC(=O)NCC3CCCO3)nc3c(c2=O)SCC3)cc1 (stereo unspecified)	0.693	9.3	69.1%	-0.7	0.5	3.2	-12.6
Cc1cccc(C)c1NC(=O)C1(NC(=O)C2CCC(=O)N2)CCCCC1 (stereo unspecified)	0.685	1.2	4.8%	-0.8	1.1	0.2	-13.2
Cc1ccc(NC(=S)NCc2ccc(Cl)cc2)c(OC(F)F)c1	0.662	1.6	.	1.3	1.7	1.5	9.9
COc1ccc2c(c1)CCc1c(C(=O)Nc3ccn(Cc4ccc(C)cc4)n3)noc1-2	0.756	1.9	-5.8%&-15.7%	2.2	1.4	-1.8	-3.0
O=C(NC(=S)N1CCN(c2ccc([N+](=O)[O-])cc2)CC1)c1ccccc1F	0.717	6.6	-4.6%	-0.2	-0.1	-1.9	2.0
